Screens (PubChem BioAssay)
Proteasome disasm: blocks ATP-dependent breakdown of the yeast 26S proteasome; anti-FLAG beads, GFP-proteasome disassembly, flow cytometry; inhibition of disassembly, % (test concentration not listed); hit rate 0.2% among 24,000; AID 751;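 active = above 40%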;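 note: plate controls were ATP control with full disassembly for no effect and ATP-gamma-S intact proteasomes for full effect; higher percent means more bead fluorescence retained so stronger block of disassembly; stock transfer was 100 nL into about 10 µL; wells with too few beads may also be inconclusive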
VCAM-1 rise: enhancers of VCAM-1 display on endothelial cells, cell-based, plate reader, pooled HUVEC, TNFa stimulus (AID 455); augmentation, % at 5 µM; HUVEC TNFa-induced VCAM-1 immunofluorescence, plate reader; numbers were filed only for top-ranked candidate wells; hit rate 0.2% among 10,000;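 active = a compound raising TNF-alpha-driven VCAM-1 surface staining, with its hit status upheld on visual or statistical review; inactive = the rest, including hits rejected on review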;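 note: 0% = TNFa with vehicle and 100% = strongest image-checked hit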
The depositor's hits bear a star; i = inactive; . = no result given. This is a subset. The share of hits here may be higher or lower than overall.

The opening 23 records (preview)
# | Proteasome disasm | VCAM-1 rise | smiles
1 | 0.0 | . | CSc1nnc(Cc2cc(=O)[nH]c(=O)[nH]2)n1-c1cc(C)ccc1C
2 | 1.6 | . | CC#CCCCC(=O)Nc1ccccc1C(=O)O
3 | 0.9 | . | CCOC(=O)c1cccc(-n2c(C)nc3ccccc3c2=O)c1
4 | 0.8 | . | COC(=O)Nc1nc(C)c(C(=O)N(C)C)s1
5 | -1.0 | i | CCN(CC)S(=O)(=O)c1ccc(S(=O)(=O)N(Cc2ccccn2)Cc2ccco2)cc1
6 | -1.9 | i | CC(C)NCC(O)COc1cccc2[nH]ccc12 (configuration not stated)
7 | 1.1 | i | c1ccc(Cn2nnnc2C(c2ccccn2)N2CCOCC2)cc1 (configuration not stated)
8 | 1.3 | . | O=C(CSc1nnc(-c2ccc(Cl)s2)o1)N1CCOCC1
9 | -0.1 | i | COC(=O)c1cc(Br)c(=O)n(-c2ccc(OC)cc2)c1
10 | -0.4 | . | CCOC(=O)CN1C(=O)SC(CC(=O)Nc2nccs2)C1=O (configuration not stated)
11 | 0.3 | . | CC(C)NC(=O)CCS(=O)(=O)c1ccc(Br)s1
12 | 4.0 | i | CCN(CC)C(=O)C1CCN(CC2CC=CCC2)CC1 (configuration not stated)
13 | -0.3 | . | C=CCn1c(=O)c(C#N)cc2c(=O)n3ccccc3nc21
14 | 0.7 | i | CCOC(=O)Cn1c(S(=O)(=O)Cc2ccccc2)nc2ccccc21
15 | -0.8 | . | CCOc1ccc(CCNC(=O)C2CC(=O)N(C3CCCC3)C2)cc1OCC (configuration not stated)
16 | -1.8 | i | CN1CCN(/C=N/c2sc3c(c2C#N)CCCCC3)CC1
17 | -0.8 | . | Cn1c(=O)c2c(-c3ccccc3)n(-n3cnnc3)cc2n(C)c1=O
18 | -1.0 | i | COc1ccc(N2CCN(CCCNC(=O)C3CCCN(S(=O)(=O)c4cnc[nH]4)C3)CC2)cc1 (configuration not stated)
19 | -1.3 | . | Cc1nc2ccccc2c2oc(C(=O)NCCN3CCN(C)CC3)cc12
20 | -0.3 | . | CCOC(=O)N1CCN(C(=O)CS(=O)(=O)Cc2nc(-c3ccccc3C)oc2C)CC1
21 | 1.9 | i | O=C(NC1CCCCC1)C(c1ccc(Cl)cc1)N(C(=O)c1cnccn1)c1ccc2c(c1)OCO2 (configuration not stated)
22 | 2.8 | i | CCOc1nc2ccccc2nc1NS(=O)(=O)c1ccccc1
23 | 1.9 | . | COCCn1c(=S)[nH]c2cc(C(=O)N3CCc4ccccc43)ccc2c1=O

The listing, from the start:
# | Proteasome disasm | VCAM-1 rise | smiles
1 | 0.0 | . | CSc1nnc(Cc2cc(=O)[nH]c(=O)[nH]2)n1-c1cc(C)ccc1C
2 | 1.6 | . | CC#CCCCC(=O)Nc1ccccc1C(=O)O
3 | 0.9 | . | CCOC(=O)c1cccc(-n2c(C)nc3ccccc3c2=O)c1
4 | 0.8 | . | COC(=O)Nc1nc(C)c(C(=O)N(C)C)s1
5 | -1.0 | i | CCN(CC)S(=O)(=O)c1ccc(S(=O)(=O)N(Cc2ccccn2)Cc2ccco2)cc1
6 | -1.9 | i | CC(C)NCC(O)COc1cccc2[nH]ccc12 (configuration not stated)
7 | 1.1 | i | c1ccc(Cn2nnnc2C(c2ccccn2)N2CCOCC2)cc1 (configuration not stated)
8 | 1.3 | . | O=C(CSc1nnc(-c2ccc(Cl)s2)o1)N1CCOCC1
9 | -0.1 | i | COC(=O)c1cc(Br)c(=O)n(-c2ccc(OC)cc2)c1
10 | -0.4 | . | CCOC(=O)CN1C(=O)SC(CC(=O)Nc2nccs2)C1=O (configuration not stated)
11 | 0.3 | . | CC(C)NC(=O)CCS(=O)(=O)c1ccc(Br)s1
12 | 4.0 | i | CCN(CC)C(=O)C1CCN(CC2CC=CCC2)CC1 (configuration not stated)
13 | -0.3 | . | C=CCn1c(=O)c(C#N)cc2c(=O)n3ccccc3nc21
14 | 0.7 | i | CCOC(=O)Cn1c(S(=O)(=O)Cc2ccccc2)nc2ccccc21
15 | -0.8 | . | CCOc1ccc(CCNC(=O)C2CC(=O)N(C3CCCC3)C2)cc1OCC (configuration not stated)
16 | -1.8 | i | CN1CCN(/C=N/c2sc3c(c2C#N)CCCCC3)CC1
17 | -0.8 | . | Cn1c(=O)c2c(-c3ccccc3)n(-n3cnnc3)cc2n(C)c1=O
18 | -1.0 | i | COc1ccc(N2CCN(CCCNC(=O)C3CCCN(S(=O)(=O)c4cnc[nH]4)C3)CC2)cc1 (configuration not stated)
19 | -1.3 | . | Cc1nc2ccccc2c2oc(C(=O)NCCN3CCN(C)CC3)cc12
20 | -0.3 | . | CCOC(=O)N1CCN(C(=O)CS(=O)(=O)Cc2nc(-c3ccccc3C)oc2C)CC1
21 | 1.9 | i | O=C(NC1CCCCC1)C(c1ccc(Cl)cc1)N(C(=O)c1cnccn1)c1ccc2c(c1)OCO2 (configuration not stated)
22 | 2.8 | i | CCOc1nc2ccccc2nc1NS(=O)(=O)c1ccccc1
23 | 1.9 | . | COCCn1c(=S)[nH]c2cc(C(=O)N3CCc4ccccc43)ccc2c1=O
24 | -0.8 | i | N#Cc1ccc(CSc2nnc(-c3cnccn3)o2)cc1
25 | -1.4 | i | Cc1c(-n2c(CN3C(=O)c4ccccc4C3=O)nc3ccccc3c2=O)c(=O)n(-c2ccccc2)n1C
26 | 0.6 | . | CCOc1cc(C2C(C(=O)OC)=C(C)N=C3SC(C)C(=O)N32)ccc1OC(C)=O (configuration not stated)
27 | -1.1 | i | c1ccc(-n2ncc3c(NCc4cccs4)ncnc32)cc1
28 | 1.8 | i | COC(=O)c1ccccc1NC(=O)N1CCCC1
29 | 0.8 | . | Cc1nn(Cc2ccccc2Cl)c(C)c1NC(=O)c1noc2c1CCCCC2
30 | 0.9 | i | O=C(NC1CCCc2ccccc21)c1ccc(CNc2c(N3CCOCC3)c(=O)c2=O)cc1 (configuration not stated)

The closing two entries of the part above are carried over, then new ones follow.
# | Proteasome disasm | VCAM-1 rise | smiles
29 | 0.8 | . | Cc1nn(Cc2ccccc2Cl)c(C)c1NC(=O)c1noc2c1CCCCC2
30 | 0.9 | i | O=C(NC1CCCc2ccccc21)c1ccc(CNc2c(N3CCOCC3)c(=O)c2=O)cc1 (configuration not stated)
31 | 0.2 | . | CCOC(=O)C(Cc1ccccc1)NC(=O)CCc1c(C)nc2ncnn2c1C (configuration not stated)
32 | 0.6 | . | CCOC(=O)N1CCN(C(=O)c2ccc3c(c2)NC(=O)C(N2CCOCC2)S3)CC1 (configuration not stated)
33 | 0.7 | i | COc1ccc(S(=O)(=O)N2CCN(c3ccc(C)cc3C)CC2)cc1OC
34 | -2.3 | . | Cc1ccc(CNC(=O)C2c3ccccc3C(=O)N3CCc4ccccc4C23)o1 (configuration not stated)
35 | -1.1 | i | CCOC(=O)c1sc2nc3c(cc2c1N)COC(C)(C)C3
36 | -0.6 | . | COc1ccccc1C(=O)Nc1cc(-c2nn3c(C)nnc3s2)ccc1C
37 | -0.4 | i | CN1/C(=C\C(=O)C(F)F)C(C)(C)c2ccccc21
38 | -0.2 | . | CCOC(=O)c1sc(=S)n(-c2cc(F)ccc2F)c1N
39 | 0.1 | . | COCCCNC(=O)CCCn1c(=O)[nH]c2ccccc2c1=O
40 | 0.9 | i | CCOc1ccc(C2CC(=O)NC3=C2C(=O)CCC3)cc1Cl (configuration not stated)
41 | -0.5 | i | CC(C)C1N=C2c3ccccc3N=C(SCC(=O)NCCc3ccc(S(N)(=O)=O)cc3)N2C1=O (configuration not stated)
42 | -0.3 | . | O=C(c1cc2ccccn2n1)N1CCN(Cc2ccccc2)CC1
43 | 6.0 | . | Cc1ccc(CNC(=O)CN2CCN(Cc3ccc(C)cc3)C2=O)cc1
44 | 0.0 | . | CC(=O)N1CCc2cc(C(=O)CN3CCN(c4cccc(Cl)c4)CC3)ccc21
45 | -0.2 | . | CC1CCCCC1NC(=O)c1cn(C)c2ccc(S(=O)(=O)N3CCCC3)cc2c1=O (configuration not stated)
46 | -0.7 | . | Cc1ccccc1CS(=O)(=O)Cc1ccc(C(=O)N2CCOCC2)o1
47 | 0.4 | i | O=S(=O)(c1ccc2ccccc2c1)N(CC(O)CN1CCOCC1)c1ccccc1 (configuration not stated)
48 | 0.1 | . | CCC(C)NC(=O)c1c(-c2cc(Cl)c(OC)c(Cl)c2)noc1C (configuration not stated)
49 | 0.3 | i | Cc1ccc(-c2[nH]nc3c2C(c2ccc(OC(=O)N4CCOCC4)cc2)C(C#N)=C(N)O3)cc1 (configuration not stated)
50 | 0.5 | i | CN(C(=O)COc1cc(=O)n(C)c2ccccc12)c1ccc(Br)cc1
51 | 0.5 | . | CC(C)CCOc1ccc(C(=O)CCNC(C)C(=O)O)cc1 (configuration not stated)
52 | 0.0 | i | CCOc1ccc(CCN2C(=O)C3C4C=CC(C4)C3C2=O)cc1OCC (configuration not stated)
53 | -0.5 | . | CCC(C)NS(=O)(=O)c1ccc(NC(=O)c2c(-c3ccccc3)noc2C)cc1 (configuration not stated)
54 | -0.9 | . | Cc1nc2sc(C(c3ccc(F)cc3)N3CCN(C(=O)c4ccco4)CC3)c(O)n2n1 (configuration not stated)
55 | -0.2 | . | COc1ccccc1C(=O)N(Cc1nc(-c2ccc(Cl)cc2)no1)C(C)C
56 | 1.2 | . | O=C(NCCC1=CCCCC1)C1CCN(c2nnc(-n3cccc3)s2)CC1
57 | -0.5 | . | CCOC(=O)C(C)n1cnc2c(nnn2-c2ccc(OC)cc2)c1=O (configuration not stated)
58 | -0.4 | . | CCOC(=O)c1c(C)oc(/N=C/c2ccccc2O)c1C#N
59 | 1.8 | i | Cc1ccc(NC2=NCC(=O)N2c2ccc3c(c2)OCCO3)c(C)c1
60 | -1.4 | . | CCOC(=O)N1CCN(c2cc(C)nc3nc(C)nn23)CC1

Look-ups from above.
Proteasome disasm result of #55 stands at -0.2
Proteasome disasm result of #52 stands at 0.0

The list goes on.
# | Proteasome disasm | VCAM-1 rise | smiles
61 | 6.9 | . | CN(C)c1nc(N)nc(/C(C#N)=C/C2CC3C=CC2C3)n1 (configuration not stated)
62 | -0.4 | . | Cc1cc(NC(=O)c2cccc(N3C(=O)CCC3=O)c2)no1
63 | -0.6 | i | COc1ccc(C(=O)c2ccc(OC)c(N)c2)cc1N
64 | 1.2 | i | Cc1ccc2[nH]cc(C(=O)CN3CCC4(CC3)OCCO4)c2c1
65 | -0.5 | i | CCc1nc(C)c(C#N)c2cc(OC)c(OC)cc12
66 | 0.4 | i | CCOC(=O)C1CCN(C(=O)CN(Cc2ccccc2)S(C)(=O)=O)CC1
67 | 0.9 | i | CC1(C)CC(CCNC(=O)c2ccco2)CC(C)(C)N1
68 | 0.2 | . | Cc1ccc(-n2nc3c(c2NC(=O)c2ccc(S(=O)(=O)N4CCOCC4)cc2)CSC3)c(C)c1
69 | 0.4 | i | COc1cccc(C(=O)CSc2nnc(COc3cccc4cccnc34)o2)c1
70 | -0.2 | . | COc1cccc(-n2nnc3c(=O)n(Cc4ccc(Cl)cc4)cnc32)c1
71 | 0.0 | . | CC(NC(=O)CN1C(=O)COc2ccccc21)c1ccccc1 (configuration not stated)
72 | -1.2 | i | CCOC(=O)N1CCN(c2c(N3CCc4ccccc4C3)c(=O)c2=O)CC1
73 | 1.3 | . | CC1CCN(CCCNC(=O)COc2cc(=O)n(C)c3ccccc23)CC1
74 | 9.2 | i | Cc1oc(-c2cccc(Cl)c2)nc1CN1CCC(C(=O)N2CCN(c3ccccc3F)CC2)CC1
75 | -0.2 | i | COC(C)(C)c1cc(C(C)(C)C)nc(N)n1
76 | -0.7 | i | COc1ccccc1CC(=O)NCc1ccc2c(c1)OCO2
77 | 0.6 | . | COc1ccc(N2CCN(C(=O)CCCOc3cc(=O)n(C)c4ccccc34)CC2)cc1
78 | 0.4 | i | COc1cc(SC)ccc1C(=O)Nc1ccccc1C#N
79 | -0.3 | . | COc1cc(C2CC(=O)NC3=C2C(=O)CC(C)(C)C3)cc(OC)c1O (configuration not stated)
80 | -0.9 | . | Cc1ccc2nc3ccc(N4CCCC4)nn3c(=O)c2c1
81 | 0.5 | i | Cc1c(C(=O)OCCOC(C)C)[nH]c2c1C(=O)CC(c1ccco1)C2 (configuration not stated)
82 | 2.0 | . | CCOc1ccc(NC(=O)CN2CCN(CC(=O)c3ccc(OC)c(OC)c3)CC2)cc1
83 | -2.6 | . | COc1ccc(CCNC(=O)C2CCN(S(=O)(=O)N3CCCCCC3)CC2)cc1OC
84 | -0.6 | . | O=C(CSc1nnc(-c2ccccc2)o1)Nc1ccccc1F
85 | 1.0 | . | CC(C)OCCCn1c(=S)[nH]c2ccc(N3CCOCC3)cc2c1=O
86 | -0.2 | . | Cc1noc(C(=O)N2CCN(c3ccc(F)cc3)CC2)c1Cl
87 | -2.5 | . | CC(C(=O)Nc1cccnc1)N1C(=O)C2C3C=CC(C3)C2C1=O (configuration not stated)
88 | -0.6 | . | Cc1ccc(CNC(=O)C2CCCN(S(C)(=O)=O)C2)cc1 (configuration not stated)
89 | -0.6 | . | CC1(C(=O)NC2CCCCCCC2)CCC(=O)N1Cc1cccnc1 (configuration not stated)
90 | 8.8 | i | COc1ccc(CCn2c(-c3ccco3)nc3nc4ccccc4nc32)cc1
91 | -2.0 | . | COC(=O)c1ccc2c(=O)n(CCCCCC(=O)N3CCN(c4ccccc4)CC3)c(=O)[nH]c2c1

Record cards, from the list above. Order of screens: Proteasome disasm | VCAM-1 rise
COC(=O)c1ccc2c(=O)n(CCCCCC(=O)N3CCN(c4ccccc4)CC3)c(=O)[nH]c2c1 is entered as -2.0 | .
Cc1noc(C(=O)N2CCN(c3ccc(F)cc3)CC2)c1Cl is entered as -0.2 | .
